FPR binding: FPR binders displacing fluorescent formyl peptide, primary screen, U937-FPR cells, fMLFK-FITC, flow cytometry (AID 362); hit rate 1% among 4,300; inhibition, %; U937-FPR cells, fMLFK-FITC displacement, flow cytometry; stronger effect = higher value; test concentration not given here; most inactive calls were filed without a number and no value below 0 was filed;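 active = inhibition of labelled peptide binding to the formyl peptide receptor of at least 65%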;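 also: plate controls were buffer control wells for no effect and unlabeled fMLFF blocking peptide for full effect; higher means less cell fluorescence so more probe displaced; part of the set was picked by virtual screening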
The depositor's hits bear a star; i = inactive.

CCCOC(=O)C1=C(C)NC2=C(C(=O)C(C(=O)OC)C(C)C2)C1c1cccs1 (stereo unspecified)
- FPR binding: 7.8
COc1cc(C2C3=C(CC(C)(C)CC3=O)OC3=C2C(=O)CC(C)(C)C3)ccc1Oc1ccc([N+](=O)[O-])cc1C(F)(F)F
- FPR binding: i
CCCc1cc(=O)[nH]c(SCC(N)=O)n1
- FPR binding: i
Cc1cc(C)c(S(=O)(=O)NCC2CCC(C(=O)NCCc3ccc(Cl)cc3)CC2)c(C)c1 (stereo unspecified)
- FPR binding: 18.5
Cc1ccc(COc2ccc([N+](=O)[O-])cc2C2c3sc(=O)[nH]c3SC3C4CCC(C4)C23)cc1 (stereo unspecified)
- FPR binding: 4.6
CCOC(=O)c1cnc2ccc(OCC)cc2c1N1CCCCCC1
- FPR binding: 25.2
CCOC(=O)C1CCC(CN(Cc2ccc(Cl)cc2)S(=O)(=O)c2ccc([N+](=O)[O-])cc2)CC1 (stereo unspecified)
- FPR binding: i
COc1ccc(C2NC(=O)NC(C)=C2C(=O)OC2CCCCC2)cc1 (stereo unspecified)
- FPR binding: 14.6
CCSCCOC(=O)C1=C(C)NC2=C(C(=O)C(C(=O)OC)C(C)C2)C1c1ccc2c(c1)OCO2 (stereo unspecified)
- FPR binding: i
Cc1ccc(S(=O)(=O)Nc2cc3c(c4ccccc24)OC2(N4CCOCC4)CCCCC32)cc1 (stereo unspecified)
- FPR binding: i
COC(=O)C1=C(N)OC2=C(C(=O)CC(C)(C)C2)C1c1ccccc1OC (stereo unspecified)
- FPR binding: i
CCN1CCN(Cc2c(O)ccc3c(=O)c(Oc4ccccc4C(C)C)c(C(F)(F)F)oc23)CC1
- FPR binding: 25.0
CCCCOc1ccccc1C1C(C(=O)OCC)=C(C)NC2=C1C(=O)C(C(=O)OC)C(C)C2 (stereo unspecified)
- FPR binding: 11.5
COc1cc2c(C(=O)N(C)c3cccc(C)c3)cn(CC(C)C)c(=O)c2cc1OC
- FPR binding: i
O=C(CSc1c2c(nc3ccccc13)CCCC2)N1CCN(c2ccccn2)CC1
- FPR binding: i

CCOc1ccc2c(=O)c(Oc3ccccc3)c(C(F)(F)F)oc2c1
- FPR binding: i
COc1ccc(C2NC(=O)NC(C)=C2C(=O)OCC(C)C)cc1 (stereo unspecified)
- FPR binding: 6.8
CCCOc1ccc(C2C(C(=O)OCC)=C(C)NC3=C2C(=O)C(C(=O)OC)C(C)C3)cc1OC (stereo unspecified)
- FPR binding: 17.2
CCCCCn1c(CN2CCN(C(c3ccccc3)c3ccccc3)CC2)nc2c1c(=O)n(C)c(=O)n2C
- FPR binding: i
Cc1ccc(S(=O)(=O)/N=C(/CN2CCCC2)N2CCN(S(=O)(=O)c3ccc(C)cc3)C2C(C)C)cc1 (stereo unspecified)
- FPR binding: i
CCC(C)(C(=O)NC1CCCC1)N(C(=O)CNC(=O)c1ccccc1)c1ccc(C)cc1 (stereo unspecified)
- FPR binding: i
Cc1cccc(N2C(=O)C3C4CC5C6(C)CCCC(C)(C(=O)O)C6CCC5(C=C4C(C)C)C3C2=O)c1 (stereo unspecified)
- FPR binding: i
Cc1ccc(C(=O)N2N=C3c4ccccc4S(=O)(=O)N3C2N2CCCCC2)cc1 (stereo unspecified)
- FPR binding: i
COc1cc(C2NC(=O)NC(C)=C2C(=O)OCC(F)(F)F)cc(OC)c1OC (stereo unspecified)
- FPR binding: 0.1
CCOc1cc(C2C(C(=O)OC3CCCCC3)=C(C)NC3=C2C(=O)CC(c2ccccc2)C3)cc(Cl)c1O (stereo unspecified)
- FPR binding: i
COc1ccccc1Nc1ncnc2sc3c(c12)CCCC3
- FPR binding: i
COc1ccc(C(=O)NCC2(c3ccc(OC)c(OC)c3)CCCC2)c(OC)c1
- FPR binding: i
CCCc1ccc(Oc2c(C(F)(F)F)oc3cc(OC(C)=O)ccc3c2=O)cc1
- FPR binding: 46.4
CCCCCOC(=O)C1=C(C)NC(=O)NC1c1ccc(OCCC)cc1 (stereo unspecified)
- FPR binding: i
COc1ccc(CCNC(=O)c2cn(CC(C)C)c(=O)c3c2c2ccccc2n3C)cc1OC
- FPR binding: i

CCOC(=O)C1=C(C)NC2=C(C(=O)C(C(=O)OC)C(C)C2)C1c1ccc(OCC)c(OC)c1 (stereo unspecified)
- FPR binding: 12.9
CCOC(=O)C1CCN(C(=O)C2CCC(CNS(=O)(=O)c3ccc(OC)cc3)CC2)CC1 (stereo unspecified)
- FPR binding: i
COc1ccc(C(C2C(=O)CC(C)(C)CC2=O)C2C(=O)CC(C)(C)CC2=O)cc1COCC(F)(F)F
- FPR binding: 34.1
CCOC(=O)C1=C(C)NC2=C(C(=O)C(C(=O)OC)C(C)C2)C1c1ccccc1Cl (stereo unspecified)
- FPR binding: i
CCSCCOC(=O)C1=C(C)NC2=C(C(=O)C(C(=O)OC)C(C)C2)C1c1ccc(OC)c(O)c1 (stereo unspecified)
- FPR binding: 32.8
COC(=O)C1C(=O)C2=C(CC1C)NC(C)=C(C(=O)OC1CCCC1)C2c1cccc(O)c1 (stereo unspecified)
- FPR binding: 11.4
COc1ccc(NC(=O)Cn2cnc3sc(C)c(S(=O)(=O)N4CCC(C)CC4)c3c2=O)cc1OC
- FPR binding: i
CCSCCOC(=O)C1=C(C)NC2=C(C(=O)C(C(=O)OC)C(C)C2)C1c1ccc(C)s1 (stereo unspecified)
- FPR binding: 17.8
CCCOC(=O)C1=C(C)NC2=C(C(=O)C(C(=O)OC)C(C)C2)C1c1ccc(N(CC)CC)cc1 (stereo unspecified)
- FPR binding: 14.8
COC(=O)C1C(=O)C2=C(CC1C)NC(C)=C(C(=O)OCCOc1ccccc1)C2c1ccc(C)cc1 (stereo unspecified)
- FPR binding: 17.3
O=C(O)C1CCC(CNS(=O)(=O)c2ccc(Cl)cc2)CC1 (stereo unspecified)
- FPR binding: 2.2
O=C(CSc1nc2ccccc2c(=O)n1CC1CCC(C(=O)NCc2ccccc2)CC1)NCCC1=CCCCC1 (stereo unspecified)
- FPR binding: i
CC1CCC(C(C)C)C(OCC(O)CN2CCC(CN3C(=O)c4cccc5cccc(c45)C3=O)CC2)C1 (stereo unspecified)
- FPR binding: 93.4*
CCOc1ccc(C2C(=O)N(C3CCCCC3)CC(=O)N2C2CCCc3ccccc32)cc1OC (stereo unspecified)
- FPR binding: i
O=C(O)CCCCCn1c(SCC(=O)NCc2ccco2)nc2ccsc2c1=O
- FPR binding: i

CC1(C)CC(=O)C2=C(C1)Nc1nc3ccccc3n1C2c1ccccc1[N+](=O)[O-] (stereo unspecified)
- FPR binding: i
Cc1sc2ncn(CC(=O)N3CCN(c4ccccc4)CC3)c(=O)c2c1S(=O)(=O)N1CCC(C)CC1
- FPR binding: i
COc1ccccc1NC1=CC(=O)CC(C)(C)C1
- FPR binding: i
CCOC(=O)C1=C(C)NC2=C(C(=O)C(C(=O)OC)C(C)C2)C1c1ccc(OC(C)=O)cc1 (stereo unspecified)
- FPR binding: 8.6
COC(=O)C1C(=O)C2=C(CC1C)NC(C)=C(C(=O)OC1CCCCCC1)C2c1cccc(Cl)c1 (stereo unspecified)
- FPR binding: 4.9
CCCOC(=O)C1=C(C)NC2=C(C(=O)C(C(=O)OC)C(C)C2)C1c1cccc(O)c1 (stereo unspecified)
- FPR binding: i
CCOC(=O)c1c(-c2ccc(C)cc2C)csc1NC(=O)C1CCCCC1C(=O)O (stereo unspecified)
- FPR binding: 94.2*
CCCCOC(=O)c1c(C)oc2c1cc(NS(=O)(=O)c1cc([N+](=O)[O-])ccc1C)c1ccccc12
- FPR binding: 11.4
Cc1cc(C)nc(SC2CCCCC2NS(=O)(=O)c2ccccc2)n1 (stereo unspecified)
- FPR binding: i
COc1ccc(C2(CNC(=O)COc3ccccc3)CCOCC2)cc1
- FPR binding: 13.6
COc1cc(/C=C2/CC(c3ccccc3)C/C(=C\c3cc(OC)c(OC)c(OC)c3)C2=O)cc(OC)c1OC (stereo unspecified)
- FPR binding: i
CCOC(=O)c1cnc2cc(C(F)(F)F)ccc2c1N1CCN(CC)CC1
- FPR binding: i
Cc1nccn1-c1c2c(c(C#N)c3nc4ccccc4n13)CCCC2
- FPR binding: i
CC(c1ccccc1)N1C(=O)/C(=C/c2c(N3CCCCC3)nc3ccccn3c2=O)SC1=S (stereo unspecified)
- FPR binding: i
CCCOCCOC(=O)C1=C(C)NC2=C(C(=O)C(C(=O)OC)C(C)C2)C1c1cccc(O)c1 (stereo unspecified)
- FPR binding: 13.4

CC1=C(C(=O)OCC(F)(F)F)C(c2ccc(O)cc2)NC(=O)N1 (stereo unspecified)
- FPR binding: i
O=C(NCc1ccccn1)C1CCC(CNS(=O)(=O)c2ccc(Cl)cc2)CC1 (stereo unspecified)
- FPR binding: i
COc1cccc(C2C(C(=O)OC3CCCCC3)=C(C)NC3=C2C(=O)CC(C)(C)C3)c1 (stereo unspecified)
- FPR binding: 11.2
CCSCCOC(=O)C1=C(C)NC2=C(C(=O)C(C(=O)OC)C(C)C2)C1c1cccc(Br)c1 (stereo unspecified)
- FPR binding: 3.4
Cc1ccc(COc2ccc(C3C4=C(CC(C)(C)CC4=O)Nc4ncnn43)cc2)cc1 (stereo unspecified)
- FPR binding: 24.5
COc1cc([N+](=O)[O-])cc2c1OC1(C=C2)N(c2ccccc2)c2ccccc2C1(C)C (stereo unspecified)
- FPR binding: i
O=C(NCC1CCCO1)C1CCC(CNS(=O)(=O)c2ccc(F)cc2)CC1 (stereo unspecified)
- FPR binding: i
CCC(C)C(NC(=O)C(CC(C)C)NC(=O)OCc1ccccc1)C(=O)OC (stereo unspecified)
- FPR binding: 3.5
CCCOC(=O)C(C)Oc1ccc2c(=O)c(Oc3cccc(C)c3)c(C(F)(F)F)oc2c1 (stereo unspecified)
- FPR binding: i
O=C(O)C1CCCCC1C(=O)NCc1ccncc1 (stereo unspecified)
- FPR binding: i
CCCOc1ccc(C2NC(=O)NC(C)=C2C(=O)OCC(C)CCC)cc1 (stereo unspecified)
- FPR binding: i
CC1=C(C(=O)OC2CCCCCC2)C(c2cccc(O)c2)C2=C(CC(C)(C)CC2=O)N1 (stereo unspecified)
- FPR binding: 29.7
CCOC(=O)c1cc2c(=O)n3ccccc3nc2n(C2CCCCC2)c1=NC(=O)c1cccc([N+](=O)[O-])c1
- FPR binding: i
N=c1c(C(=O)NCC2CCCO2)cc2c(=O)n3ccccc3nc2n1C1CCCCC1 (stereo unspecified)
- FPR binding: i
COc1ccc([N+](=O)[O-])cc1COc1cc2oc(=O)c3c(c2cc1Cl)CCC3
- FPR binding: 3.4

CCCCCCCNS(=O)(=O)c1cc(S(=O)(=O)NCCCCCCC)c2cccc3c2c1NC3=O
- FPR binding: i
CCOCCOC(=O)C1=C(C)NC2=C(C(=O)C(C(=O)OC)C(C)C2)C1c1ccc(F)cc1 (stereo unspecified)
- FPR binding: i
CC(C)C(NC(=O)C12CC3CC(CC(C3)C1)C2)C(=O)NC1=NCCS1 (stereo unspecified)
- FPR binding: i
O=C(Nc1cc(F)ccc1F)C12CC3CC(C1)CC(n1cncn1)(C3)C2
- FPR binding: 10.1
COCCCNC(=O)C1CCC(CNS(=O)(=O)c2c(C)cc(C)cc2C)CC1 (stereo unspecified)
- FPR binding: i
COc1cccc(CNC(=O)C(NS(=O)(=O)c2ccc3c(c2)CCN3C(C)=O)C(C)C)c1 (stereo unspecified)
- FPR binding: i
CC(C)C(C(=O)Nc1nccs1)N1C(=O)c2ccccc2C1=O (stereo unspecified)
- FPR binding: 17.3
CC(=O)Nc1ccc(S(=O)(=O)NCC2CCC(C(=O)NC(C)c3ccccc3)CC2)cc1 (stereo unspecified)
- FPR binding: i
COc1ccc(C2c3sc(=O)[nH]c3SC3C4CC(C5C(=O)N(c6cccc(C(F)(F)F)c6)C(=O)C45)C23)cc1 (stereo unspecified)
- FPR binding: i
CC1(C)CC(n2c(SCc3ccccc3)nc3c(c2=O)C2(CCCC2)Cc2ccccc2-3)CCO1 (stereo unspecified)
- FPR binding: i
COc1cc(C2NC(=O)N(C)C(C)=C2C(=O)OCCC(C)C)cc(Cl)c1O (stereo unspecified)
- FPR binding: 15.0
COc1cc(C2C3=C(CC(C)(C)CC3=O)OC3=C2C(=O)CC(C)(C)C3)cc(OC)c1O
- FPR binding: 44.3
COc1ccccc1C1C2=C(CC(C)(C)CC2=O)Nc2ncnn21 (stereo unspecified)
- FPR binding: i
CCOc1cc(C2C3=C(CC(C)(C)CC3=O)N(CC(=O)O)C3=C2C(=O)CC(C)(C)C3)ccc1OC
- FPR binding: i
CCOC(=O)c1cccc(N2C(=O)C3C4C=CC(CC4)C3C2=O)c1 (stereo unspecified)
- FPR binding: 5.3

COc1ccc(S(=O)(=O)NC(CC(=O)NCCC2=CCCCC2)C(C)C)cc1 (stereo unspecified)
- FPR binding: 8.1
CC(=O)OCC12COC(c3ccccc3OC(C)=O)C(C(C)=CC1C)C2C (stereo unspecified)
- FPR binding: 6.7
CCCOC(=O)C1=C(C)NC2=C(C(=O)C(C(=O)OC)C(C)C2)C1c1ccc2c(c1)OCO2 (stereo unspecified)
- FPR binding: 4.7
O=C(CSc1nc2ccsc2c(=O)n1CC1CCC(C(=O)O)CC1)c1ccc(Br)cc1 (stereo unspecified)
- FPR binding: i
CCSCCOC(=O)C1=C(C)NC2=C(C(=O)C(C(=O)OC)C(C)C2)C1c1ccc(CC)cc1 (stereo unspecified)
- FPR binding: 33.7
CC1(C)CC(=O)C(=CN2CCOCC2)C(=O)C1
- FPR binding: 5.6
COc1cccc(C2C3=C(CC(C)(C)CC3=O)Nc3nc4ccccc4n32)c1OC (stereo unspecified)
- FPR binding: i
CC1=C(C(=O)OCC(C)C)C(c2cccc(Oc3ccccc3)c2)N2C(=O)CCSC2=N1 (stereo unspecified)
- FPR binding: i
O=C(CSc1nc2ccccc2c(=O)n1CC1CCC(C(=O)NCc2ccco2)CC1)NCc1ccccc1 (stereo unspecified)
- FPR binding: i

Not a retest: entries from further up.
CCSCCOC(=O)C1=C(C)NC2=C(C(=O)C(C(=O)OC)C(C)C2)C1c1ccc(CC)cc1 (stereo unspecified)
- FPR binding: 33.7
CC1(C)CC(=O)C(=CN2CCOCC2)C(=O)C1
- FPR binding: 5.6
COc1cccc(C2C3=C(CC(C)(C)CC3=O)Nc3nc4ccccc4n32)c1OC (stereo unspecified)
- FPR binding: i
CC1=C(C(=O)OCC(C)C)C(c2cccc(Oc3ccccc3)c2)N2C(=O)CCSC2=N1 (stereo unspecified)
- FPR binding: i

A portion of the library, so the mix of outcomes need not match the whole.
